# Compound activity: PubChem BioAssay, National Center for Advancing Translational Sciences (NCATS)
# D2 ag = activates the human D2 dopamine receptor; P14416; DiscoveRx PathHunter D2 beta-arrestin, luminescence, 90 min; 100% = 57 uM dopamine signal; activation, % (concentration not given with the values); actives 0.084% (n = 360,000); in the data active = activation above about 40%; inconclusive = about 15% to 40%; inactive = below about 15%; note: compound concentration not given in the record; the text of the record calls up to 30% inactive
#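 DiscoveRx PathHunter D2 beta-arrestin cells (2,100/well) attached overnight, then compound-stimulated 90 min at 37 C in HBSS/10 mM HEPES/0.1% Tween-20 buffer; beta-galactosidase complementation read by luminescence after 1 h at ambient temperature. Dopamine 57 uM final (EC100) as control.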
# gsp antag = antagonizes gsp, the McCune-Albright syndrome mutation; gsp-mutant cells, cAMP HTRF, 30 min; control for the full effect not named in the record; actives 0.4% (n = 340,000); AID 624288; Potency, µM (top dose mostly 76.9 µM), inactives show top-dose activity change, negative = inhibition, usual class: inhibitors; active = falling curve of any shape with a large fitted effect; inconclusive = falling curve, mostly with a smaller effect; inactive = flat or rising curve; cell line not stated here;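 note: intracellular cAMP measured with PDE inhibitor Ro 20-1724 present during compound exposure; potency is the fitted concentration of half-maximal effect; % is set by controls: 0 for no effect and ±100 for the full control effect; nearly all actives have a fitted effect of over 65% in size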
#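 HTRF cAMP measurement after 30 min RT detection following 30 min, 37C compound treatment alongside […] (added as 300 uM solution) in G418-selected cells seeded at 2000/well and grown 16–24 h.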
# D2 PAM = positive allosteric modulators of human D2 dopamine receptor. P14416. DiscoveRx D2 beta-arrestin cells, luminescence, 90 min; 100% = 57 uM dopamine signal. potentiation, % (test concentration not listed). actives 0.23% (n = 360,000); active = potentiation of 50% or more; inconclusive = 30% to 50%; inactive = 30% or less;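 note: compound concentration not given in the record; tested on top of an EC20 dose of dopamine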
#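 D2 cells co-treated with compound plus 50 nM dopamine (EC20) for 90 min at 37 deg C to detect potentiation. Beta-arrestin recruitment was read as enzyme-fragment luminescence after 1 h at ambient temperature. Full response was set by 57 uM dopamine.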
# Six1-Eya2 inh = blocks human Six1 binding to Eya2. Q15475+O00167. AlphaScreen GST-Six1/His-Eya2 binding, biochemical; stronger effect = lower value; control for the full effect not named in the record. activity change, % (test concentration not listed). actives 0.56% (n = 360,000). AID 651725; in the data active = activity change below about -65%; inconclusive = about -30% to -65%; inactive = above about -30%; note: % is set by controls: 0 for no effect and ±100 for the full control effect; compound concentration not given in the record
# Target sequence (O00167 whole entry, looked up): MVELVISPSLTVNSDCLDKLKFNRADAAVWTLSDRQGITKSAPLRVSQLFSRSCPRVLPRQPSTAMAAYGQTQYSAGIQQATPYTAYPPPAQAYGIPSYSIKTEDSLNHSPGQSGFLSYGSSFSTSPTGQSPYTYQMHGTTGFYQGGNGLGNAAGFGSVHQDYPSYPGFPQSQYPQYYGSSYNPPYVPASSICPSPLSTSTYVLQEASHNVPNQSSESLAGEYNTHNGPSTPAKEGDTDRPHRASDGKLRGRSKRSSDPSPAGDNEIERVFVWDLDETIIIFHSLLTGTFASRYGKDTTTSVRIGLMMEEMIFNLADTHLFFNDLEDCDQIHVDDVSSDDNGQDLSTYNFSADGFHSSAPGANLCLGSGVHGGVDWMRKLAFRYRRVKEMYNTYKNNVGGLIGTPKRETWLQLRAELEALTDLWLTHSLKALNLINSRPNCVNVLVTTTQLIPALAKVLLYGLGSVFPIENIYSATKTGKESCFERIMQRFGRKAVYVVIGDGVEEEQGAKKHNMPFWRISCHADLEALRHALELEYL
# Target sequence (Q15475 whole entry, looked up): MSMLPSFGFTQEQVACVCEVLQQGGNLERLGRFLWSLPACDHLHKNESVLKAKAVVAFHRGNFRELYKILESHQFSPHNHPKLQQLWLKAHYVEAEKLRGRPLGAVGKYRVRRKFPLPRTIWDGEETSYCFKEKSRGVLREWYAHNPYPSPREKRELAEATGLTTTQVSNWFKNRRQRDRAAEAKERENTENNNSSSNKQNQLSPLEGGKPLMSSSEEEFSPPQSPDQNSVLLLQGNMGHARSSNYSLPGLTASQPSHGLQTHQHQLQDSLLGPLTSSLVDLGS
#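 GST-Six1 + His-Eya2 (5X stock: 250/500 nM); Tris pH 8.0, 300 mM NaCl, 0.05% BSA, 0.02% Tween 20; GSH donor/Ni acceptor beads; 1 h 37 °C dark; AlphaScreen readout.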
# CtBP-E1A blk = CtBP/E1A binding inhibition; AlphaScreen GST-E1A/His-CtBP binding, 1536-well; stronger effect = lower value; control for the full effect not named in the record; activity change, % (test concentration not listed); actives 0.49% (n = 340,000); AID 651724; in the data active means activity change below about -65%; inconclusive means about -30% to -65%; inactive means above about -30%; note: % is set by controls: 0 for no effect and ±100 for the full control effect; compound concentration not given in the record
#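 Steps: dispense buffer (Tris pH 8.0, NaCl 300 mM, TCEP 1 mM, BSA, Tween 20); add 5X protein mix (GST-E1A, His-CtBP, 125 nM each); pin 23 nL compound; 2 h at 37 °C, dark; add 5X beads (50 ug/mL); 1 h; read.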
# gsp ag = agonists of gsp mutant (McCune-Albright syndrome); AID 624287; gsp mutant cells, cAMP HTRF, 30 min; control for the full effect not named in the record; actives 0.13% (n = 340,000); Potency, µM (highest dose often 76.9 µM), for the others: top-dose activation (cAMP increase), hits mostly activators; active = well fitted activation curve with a large enough effect; inconclusive = small, poorly fitted or top-dose-only effect, or another doubt; inactive = no such curve, though single readings can be large or run the other way; cell line not stated here;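 note: phosphodiesterase inhibitor Ro 20-1724 added with compounds to block cAMP breakdown; potency is the fitted concentration of half-maximal effect; nearly all actives have a fitted effect of over 60% in size; about a fifth of the inactives were tested at one dose only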
#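 Cells stably selected in G418 were plated at 2000/well, grown 16-24 hr, then given compounds in DMSO with the PDE inhibitor […] (300 uM solution added) for 30 min at 37C; cAMP was read by HTRF.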
# The depositor's hits bear a star; ? = inconclusive; / = not tested or not shown; [ ] = another dose, or the depositor's remark.
SMILES,D2 ag,gsp antag,D2 PAM,Six1-Eya2 inh,CtBP-E1A blk,gsp ag
CCOC(=O)C1=CCN(S(=O)(=O)c2ccccc2)C1c1ccccc1 (stereo not drawn),4.6,/,1,1,1,/
COc1cc(NC(=S)NC(=O)C(C)C)ccc1NC(=O)c1cc2ccccc2o1,-3.8,-6%,-10,6,/,3%
Cc1ccc(-c2nc(CS(=O)(=O)CC(=O)NCc3cccc(F)c3)c(C)o2)cc1,0.7,-2%,-2,-2,2,38%
COc1ccccc1N1CCN(C(=O)CSc2nnc(-c3ccoc3C)o2)CC1,1.2,-19%,-1,-8,-3,0%
COc1ccc(CCn2c(=S)[nH]c3ccc(N4CCOCC4)cc3c2=O)cc1OC,-3.2,-21%,-1,-6,3,4%[15.4 µM]
O=C(NNS(=O)(=O)c1ccc(Br)cc1)NC1CCCCC1,-1.1,7%,-7,-5,5,-15%
CN1CCC(OC(=O)C23CCC(C)(C(=O)O2)C3(C)C)CC1 (stereo not drawn),-0.8,0%,1,8,12,-5%
Cc1ccc(S(=O)(=O)n2ccc3c2CCCC3=O)cc1,-1.6,5%,-1,-7,6,3%
Cc1nc(=O)c(-c2ccccc2)c(C)n1CCCCCC(=O)O,-1.8,4%,8,12,2,0%
O=C(O)c1ccc(Oc2cccc([N+](=O)[O-])c2)cc1C(=O)O,-2.7,-1%,-10,1,3,?
Cc1ccc2c(c1)nnn2C1CCN(C(=O)C23CC4CC(CC(C4)C2)C3)CC1,-2.6,?,-8,-3,4,-32%[inhibitor]
Brc1ccc(-c2csc(NNC3=NCCCCC3)n2)cc1,-0.3,16%,12,-15,-9,5%
O=C(O)Cc1ccc(NC(=O)Nc2ccc3c(c2)OCO3)cc1,0.1,7%,-31,-11,-23,-1%
CC(C)Cn1c(CN2C(=O)c3ccccc3C2=O)nc2ccccc2c1=O,3.1,-3%,-4,11,0,?
c1coc(-c2nnc(SCc3cn4ccccc4n3)o2)c1,-1.1,-2%,-9,5,-1,24%
CCOC(=O)C1=C[C@@H](C(C)C)N(S(=O)(=O)c2ccc(C)cc2)[C@H]1c1ccccc1F,-2.0,/,-4,2,4,/
Cc1ccc(C(=O)NCCCNc2ccc(C(F)(F)F)cc2[N+](=O)[O-])cc1,2.2,-7%,13,0,14,-28%
COc1ccc(Cl)cc1NC(=O)CN(C)C(=O)c1cn(-c2ccccc2)nc1-c1cccnc1,-4.1,?,-36,4,-12,2%[15.4 µM]
NC(=O)c1c(NC(=O)COC(=O)c2ccc(S(=O)(=O)Nc3ccccc3)cc2)sc2c1CCCC2,0.9,-4%,-22,12,-14,-16%[15.4 µM]
Cc1ccc(N2NC3(CCN(C(N)=O)CC3)NC2=O)cc1,-2.0,3%,-8,-6,2,-24%
COc1ccc(S(=O)(=O)N(C)C)cc1NS(=O)(=O)c1ccc(F)c(F)c1F,-0.8,-11%,-2,8,0,-1%[15.4 µM]
COc1ccc(NC(=S)NC(=O)c2cc3ccccc3o2)c(OC)c1,-3.3,-2%,-3,-3,6,2%
Cc1ccc(NC(=O)C[n+]2cc(-c3ccc(C)cc3)n3c2CCC3)cc1,-1.1,6%,-21,8,0,-11%[15.4 µM]
CCC1(CC)NC(=O)N(CC(=O)Nc2ccc(S(=O)(=O)N3CCOCC3)cc2)C1=O,-2.3,12%,5,-1,/,-20%
COc1ccc(C2/C=C\CN(S(=O)(=O)/C=C/c3ccccc3)[C@H](Cc3ccccc3)C(=O)N2Cc2ccc(F)cc2)cc1 (stereo partly drawn),-3.9,-1%,-14,-8,/,?

# Pulled by structure from the list above, 3 records:
SMILES,D2 ag,gsp antag,D2 PAM,Six1-Eya2 inh,CtBP-E1A blk,gsp ag
Cc1ccc(N2NC3(CCN(C(N)=O)CC3)NC2=O)cc1,-2.0,3%,-8,-6,2,-24%
CCC1(CC)NC(=O)N(CC(=O)Nc2ccc(S(=O)(=O)N3CCOCC3)cc2)C1=O,-2.3,12%,5,-1,/,-20%
COc1ccc(Cl)cc1NC(=O)CN(C)C(=O)c1cn(-c2ccccc2)nc1-c1cccnc1,-4.1,?,-36,4,-12,2%[15.4 µM]

# Some of the entries so far, with values under each structure:
# Every second line gives: D2 ag | gsp antag | D2 PAM | Six1-Eya2 inh | CtBP-E1A blk | gsp ag
O=C(NNS(=O)(=O)c1ccc(Br)cc1)NC1CCCCC1
 : -1.1 | 7% | -7 | -5 | 5 | -15%
Cc1ccc2c(c1)nnn2C1CCN(C(=O)C23CC4CC(CC(C4)C2)C3)CC1
 : -2.6 | ? | -8 | -3 | 4 | -32%[inhibitor]
CCOC(=O)C1=C[C@@H](C(C)C)N(S(=O)(=O)c2ccc(C)cc2)[C@H]1c1ccccc1F
 : -2.0 | / | -4 | 2 | 4 | /
O=C(O)Cc1ccc(NC(=O)Nc2ccc3c(c2)OCO3)cc1
 : 0.1 | 7% | -31 | -11 | -23 | -1%

# Next records:
SMILES,D2 ag,gsp antag,D2 PAM,Six1-Eya2 inh,CtBP-E1A blk,gsp ag
O=[N+]([O-])c1ccc2nc(NS(=O)(=O)c3ccc(Cl)cc3)sc2c1,-2.8,?,-3,-10,-13,-3%[15.4 µM]
Clc1cccc(Cc2c(-c3cccc(Br)c3)nc3ccc(Br)cn23)c1,1.7,/,-5,5,6,/
O=C(Nc1ccccc1N1CCCC1)c1ccccc1Cl,7.2,-6%,-2,-2,-3,-33%[inhibitor]
Cc1cc(NC(=O)CCC(=O)N(CC(=O)NCC2CCCO2)c2ccc(C)c(C)c2)no1 (stereo not drawn),-5.1,/,-21,4,-15,-6%[15.4 µM]
Cc1ccc(CSCCNC(=O)c2ccc(Cl)c(S(=O)(=O)N3CCOCC3)c2)cc1,2.0,?,2,-1,-3,?
Cc1ccc(CN2C(=O)C(F)(F)Oc3ccccc32)cc1,-1.1,/,3,30,28,/
O=C(CC1SC(N2CCCCC2)=NC1=O)Nc1cccc(C(=O)O)c1 (stereo not drawn),-4.5,-3%,4,2,5,-32%[inhibitor]
Cc1ccc(C)c(NC(=O)C(=O)NCC2CCCN2S(=O)(=O)c2cccs2)c1 (stereo not drawn),0.5,1%,16,-4,4,4%
COc1ccc(-c2cc3nc(C)cc(N)n3n2)cc1,-3.0,1%,-9,-20,1,-1%[15.4 µM]
Clc1ccc(CN2CC[C@H]3C=CCc4cccc(c43)C2)cc1,11,10%,-12,-17,-10,0%
COc1ccc(C(C(=O)NCC2CCCO2)N(C(=O)Cn2nnc3ccccc32)c2ccc(NC(C)=O)cc2)c(OC)c1 (stereo not drawn),0.6,3%,-2,3,5,-24%
CCCNC(=O)COC(=O)c1ccccc1OCC(=O)Nc1ccc(Br)cc1,-7.7,-16%,6,15,-18,?
Cc1cccc(CNc2ncc(-c3cccc([N+](=O)[O-])c3)n2C)c1,0.4,-5%,-22,-22,/,-1%
CC(C)CCN1CCN(CC#Cc2ccccc2)CC1CCO (stereo not drawn),-4.5,6%,-7,-6,/,15%
Cc1c(=O)n(OCc2ccccn2)c2ccccc2[n+]1[O-],-1.5,10%,7,4,2,-34%[inhibitor]
CC(=O)C[C@H](O)CC(=O)[C@H]1OC(=O)CCCCCCc2ccccc21,0.4,-10%,0,6,0,/
O=C(c1ccc(C(F)(F)F)cc1)C1CCCN(C(=O)Cn2cncn2)C1 (stereo not drawn),-4.2,1%,-13,0,4,-20%
COc1cc(C(=O)Nc2ccc([N+](=O)[O-])cn2)cc(OC)c1OC,-0.6,7%,-32,5,18,4%
CC(C)NCC(O)c1ccc(NS(C)(=O)=O)cc1 (stereo not drawn),-2.0,1%,4,15,0,/
O=C(CCCN1C(=O)c2ccccc2C1=O)N1CCCCC1,-4.7,0%,-5,11,8,-12%
CCCc1[nH]nc2c1C(c1cc(OC)cc(OC)c1)C(C#N)=C(N)O2 (stereo not drawn),-0.9,8%,0,0,8,-9%
CCCN(CCC)C(=O)CSc1nc2n[nH]c(C)c2c(=N)n1-c1ccc(OCC)cc1,-2.6,-3%,2,-9,-4,13%
CCOC(=O)N1CCN(c2cc(N3CCN(CC)CC3)c(F)cc2[N+](=O)[O-])CC1C (stereo not drawn),-1.3,8%,-5,-12,-13,1%
CC1(c2ccc(OC(F)F)cc2)NC(=O)N(CC(=O)NC2CCCC2)C1=O (stereo not drawn),1.8,5%,-2,0,-11,?
CCc1cc2c(-c3ccccc3)cc(=O)oc2c(CN2CCOCC2)c1O,-1.2,6%,-16,13,1,?
# (more compounds)
SMILES,D2 ag,gsp antag,D2 PAM,Six1-Eya2 inh,CtBP-E1A blk,gsp ag
C=CCN1C(c2ccccc2)=CS/C1=C(\C#N)c1nnc2n1CCCCC2,2.9,?,-8,2,4,-20%
O=C(CSCc1ccco1)Nc1cc(C(F)(F)F)ccc1N1CCOCC1,0.2,0%,-2,30,2,4%
CN(C)C(=O)c1cc(C(=O)c2ccc(C(F)(F)F)cc2)c[nH]1,-4.2,1%,-15,11,/,9%
COc1ccc2[nH]c(C(=O)N3CCC(CO)(Cc4cccc(C(F)(F)F)c4)CC3)c(C)c2c1,5.6,-9%,21,2,/,-1%
Cc1nonc1NC(=O)CSc1nnc(-c2ccoc2C)n1-c1cccc(Cl)c1,-4.4,?,-17,-11,-6,-5%
CCOC(=O)COn1c(=O)c(=O)n(OC)c2ccccc21,1.9,18%,16,-2,-12,24%
CCN(CC)CCCC(C)Nc1nccc2cccc(Cl)c12 (stereo not drawn),-4.5,8%,-18,-6,-3,?
COc1cccc(-c2ccc(NC(=O)C3CCCN(Cc4ccc(CO)o4)C3)cc2)c1 (stereo not drawn),-1.5,14%,-11,-11,-4,-11%[15.4 µM]
CCCCN(C(=O)C1CCC1)c1c(N)n(CCC)c(=O)[nH]c1=O,-0.8,11%,-68,7,3,21%[15.4 µM]
Cc1cc(OCCOc2cccc3cccnc23)cc(C)c1Cl,-1.4,-20%,3,5,3,-26%
Cc1cc(-c2ccncc2)n2ncc(-c3ccccc3)c2n1,-4.3,/,-8,-25,-29,/
